VACV mCherry inh: vaccinia inhibition (mCherry reporter); 310,000 tested, 0.63% active; Vaccinia virus mCherry reporter infection, fluorescence; about a quarter of the inactives have no number; Potency, µM (titrated, usually from 36.5 µM), for the others: at the top dose activity change, negative = inhibition, usual class: inhibitors; AID 720579; active = well fitted inhibition curve with a large enough effect; inconclusive = small, poorly fitted or top-dose-only effect; inactive = no such curve, though single readings can be large or run the other way; tested in A549 cells; note: nearly all actives have a fitted effect of over 35% in size; inactives centre near -10
VACV Venus inh: vaccinia inhibition (Venus reporter); 330,000 tested, 0.46% active; AID 720580; Vaccinia virus Venus reporter expression, fluorescence; Potency, µM (top dose mostly 36.5 µM), without a hit: at the top dose activity change, negative = inhibition, most hits filed as inhibitors; active means well fitted inhibition curve with a large enough effect; inconclusive means small, poorly fitted or top-dose-only effect; inactive means no such curve, though single readings can be large or run the other way; tested in A549 cells; note: nearly all actives have a fitted effect of over 30% in size; inactives centre near -10
Numbers without * were called inactive; i = inactive; ? = inconclusive; . = no result given; & = joins results of further samples; [ ] = remark or other dose. % is set by controls: 0 for no effect and ±100 for the full control effect; potency is the fitted concentration of half-maximal effect.

SMILES | VACV mCherry inh | VACV Venus inh
O=C(Nc1ccc(F)c(F)c1)C1CCCN(S(=O)(=O)c2cccc3nonc23)C1 (stereo unspecified) | 1%&-9% | -5%&0%
CCOc1ccc(NC(=O)Cn2c(C)ccc(C#N)c2=O)cc1 | -6% | -5%
Nc1ccccc1SCC(=O)Nc1nc(-c2ccccc2)cs1 | ? | ?
COc1cccc(NC(=S)N2CCCN(Cc3ccc(F)cc3)C2)c1 | ? | -25%
COc1ccc(-n2c(C)cc(/C=C(\C#N)C(=O)NCc3ccco3)c2C)cc1 | i | -10%
COc1ccc(CN2CCC3(CCC(CNC(=O)c4ccco4)O3)CC2)c(OC)c1C (stereo unspecified) | -3% | -16%
COc1ccc(N2CCN(C(=O)c3ccc4ccccc4n3)CC2)cc1 | -14% | 6%
CNC(=O)CSc1nc2cc(S(=O)(=O)Nc3ccccc3OC)ccc2o1 | 13µM* | ?
COC(=O)C1=C(C)N(Cc2ccccc2)C(=NCc2cccc(Cl)c2)N[C@H]1c1cccc(F)c1 | ? | ?
CC1C/C(=C\c2ccccc2[N+](=O)[O-])c2nc3ccccc3c(C(=O)O)c2C1 (stereo unspecified) | i | 0%
NC(=O)C1CCN(C(=S)NC2CC3C=CC2C3)CC1 (stereo unspecified) | i | -5%
CC(Oc1ccc(C(=O)c2ccccc2)cc1)C(=O)Nc1ccc(S(N)(=O)=O)cc1 (stereo unspecified) | -7% | -19%
COCc1ccc(C(=O)N2CCCC(C(=O)c3ccc(SC)cc3)C2)s1 (stereo unspecified) | -2% | -23%
CCc1ccc(NC(=O)CS(=O)CC(=O)Nc2ccc(-n3cnnn3)c(C)c2)cc1 (stereo unspecified) | -13% | -4%
O=C(OCCN(C1=NS(=O)(=O)c2ccccc21)c1ccc(Cl)cc1)c1ccco1 | -8% | -19%
Cc1ccc(-c2nnc(SCC(=O)N/N=C/c3ccc(C)s3)n2-c2ccccc2)cc1 | -29% | -21%
CC(=O)Oc1ccc2oc(-c3ccccc3)c(C(N)=O)c2c1 | -16% | -6%
CN(C)c1ccc(CNC(=O)/C=C/[C@H]2O[C@@H](n3cnc4c(NC(=O)c5ccccc5)ncnc43)[C@H](O)[C@@H]2O)cc1 | 14% | -5%
Cc1nc(SCC(=O)N(CC(C)C)C2CCS(=O)(=O)C2)c2ccccc2n1 (stereo unspecified) | -14% | -16%
CCN(C(=O)CSc1nc2cc(S(=O)(=O)N(CC)CC)ccc2n1CC)C1CCS(=O)(=O)C1 (stereo unspecified) | i | -5%
COCCCn1c(-c2ccccc2Cl)n[nH]c1=S | . | -15%
O=C(O)c1cccc(Nc2ncnc3scc(-c4ccccc4)c23)c1 | -13% | -11%
CCOC(=O)[C@]12CCCC=C1N(Cc1ccco1)C(=O)[C@H](CC(=O)N1CCCC1)C2 | -5% | -11%
CCC(C)Nc1nc(OC(C(F)(F)F)C(F)(F)F)nc(OC(C(F)(F)F)C(F)(F)F)n1 (stereo unspecified) | i | -9%
COc1cc(NC(=O)CSc2nnnn2Cc2ccc3c(c2)OCO3)cc(OC)c1 | -11% | 0%
CCC(=O)Nc1ccc(NC(=O)c2ccco2)c(OC)c1 | -15% | -6%
COc1cccc(NC(=S)NCc2ccc(F)cc2)c1 | i | -17%
CCOc1ccc(-c2ccc(SC)nn2)cc1 | -8% | -1%
CC(C)(C)OC(=O)N1CCCC(C(=O)Nc2cccc(C(=O)NCCCc3ccccc3)c2)C1 (stereo unspecified) | i | -17%
Cc1ccc2c(c1)N(C)/C(=C/c1cccc[n+]1C)S2 | i | ?
CC(C)(C)n1ncc2c(=O)n(CC(=O)OCc3ccccc3)cnc21 | . | -19%
COc1ccc(/C=N/c2c(-c3ccc(OC)cc3)nc3n2CCS3)cc1 | -24% | -9%
COc1cccc2cc(-c3cn4c(n3)sc3cc(F)ccc34)c(=O)oc12 | -10% | -6%
CC1(C(=O)NCc2cccc3ccccc23)CCN1Cc1ccc2ccccc2c1 (stereo unspecified) | -2% | -8%
Cc1cccnc1NS(=O)(=O)c1cccc([N+](=O)[O-])c1 | -13% | -4%
COc1ccc(C2c3cc(OC)c(OC)cc3CC(=O)N2c2ccc(C)cc2)cc1 (stereo unspecified) | -6% | -6%
CCOC(=O)COc1ccc(C(c2c(C)[nH][nH]c2=O)c2c(C)[nH][nH]c2=O)cc1 | -6% | -5%
CCOC(=O)N1CCN(C(=O)NC23CC4CC(CC(C4)C2)C3)CC1 | . | -24%
CC(=O)N1c2ccc(S(=O)(=O)N(C)CC(=O)Nc3cccc(C)c3)cc2CC1C (stereo unspecified) | -12% | -13%
CN(C)CCCNC(=O)c1cccc(-c2cnc3cccnn23)c1 | i | -3%
O=C(COC(=O)c1cnccn1)N=c1sccn1Cc1ccccc1Cl | -9% | 0%
COc1ccc(NC(=O)C2c3ccccc3OCC(=O)N2Cc2cccnc2)cc1 (stereo unspecified) | i | -6%
COc1cc(NC(=O)C(=O)Nc2ccc3nc4n(c(=O)c3c2)CCCCC4)cc(OC)c1OC | 15% | 10%
C[C@H](CO)N1C[C@H](C)[C@@H](CN(C)Cc2ccc3c(c2)OCO3)Oc2cc(Br)ccc2S1(=O)=O | -25% | ?
S=C(NCC1CCCO1)Nc1ccccc1 (stereo unspecified) | i | -9%
COCCCNC(=O)c1sc2nc(C)c(C(=O)Nc3ccc(C)cc3C)c(-c3ccc(Br)cc3)c2c1N | 0% | -8%
CCN(CC)c1ccc(/C=N/NC(=O)c2ccc([N+](=O)[O-])cc2)cc1 | -1% | 0%
CCOC(=O)NNC1CC(=O)N(c2ccccc2)C1=O (stereo unspecified) | i | -9%
Cc1ccc(S(=O)(=O)N2CCCC(C(=O)N3CCCc4ccccc43)C2)cc1 (stereo unspecified) | -16% | -12%
CN(Cc1ccc(Cl)c(Cl)c1)C(C(=O)NCc1ccccc1)c1ccco1 (stereo unspecified) | ? | -5%
C[C@@H]1CCC[C@@]2(O[C@H](CCO)C[C@@H](O)[C@@H]2O)O1 | -6% | -4%
CC(C)(C)OC(=O)N[C@H]1C=C[C@@H](OC(=O)CC(=O)OCC(F)(F)F)C1 | -2% | -3%
O=C(CC1CC2CCC1C2)NCCc1ccc(Cl)cc1 (stereo unspecified) | 8% | -4%
Cc1ccc(-c2nnc(SC(C)C(=O)NCC3CCCO3)nc2-c2ccc(C)cc2)cc1 (stereo unspecified) | -12% | -25%
O=[N+]([O-])/C=C1\C=CC=CN1Cc1ccc(Cl)cc1 | i | -3%
COc1ccc(OC)c(C2CC(=O)N3CN(c4ccc(C)c(Cl)c4)CSC3=C2C#N)c1 (stereo unspecified) | -20% | 16%
Cc1cccc(N2CCN(C(=O)c3cc4c(=O)oc5ccccc5c4s3)CC2)c1C | -12% | -6%
O=C(c1cnc2n(c1=O)CCS2)N1CCN(c2ccc(Cl)c(Cl)c2)CC1 | -11% | ?
Cc1nn(Cc2ccccc2Cl)c(Cl)c1C(=O)O | i | -3%
Cc1ccccc1NC(=O)OCc1cccnc1Oc1ccc(Cl)cc1 | 4% | 5%

Given with values under each structure: part of the list above
Each structure is followed by: VACV mCherry inh, VACV Venus inh
- CCN(CC)c1ccc(/C=N/NC(=O)c2ccc([N+](=O)[O-])cc2)cc1
 : -1%, 0%
- CCOC(=O)NNC1CC(=O)N(c2ccccc2)C1=O (stereo unspecified)
 : i, -9%
- Cc1ccc(S(=O)(=O)N2CCCC(C(=O)N3CCCc4ccccc43)C2)cc1 (stereo unspecified)
 : -16%, -12%
- CN(Cc1ccc(Cl)c(Cl)c1)C(C(=O)NCc1ccccc1)c1ccco1 (stereo unspecified)
 : ?, -5%
- C[C@@H]1CCC[C@@]2(O[C@H](CCO)C[C@@H](O)[C@@H]2O)O1
 : -6%, -4%
- CC(C)(C)OC(=O)N[C@H]1C=C[C@@H](OC(=O)CC(=O)OCC(F)(F)F)C1
 : -2%, -3%
- O=C(CC1CC2CCC1C2)NCCc1ccc(Cl)cc1 (stereo unspecified)
 : 8%, -4%
- Cc1ccc(-c2nnc(SC(C)C(=O)NCC3CCCO3)nc2-c2ccc(C)cc2)cc1 (stereo unspecified)
 : -12%, -25%
- O=[N+]([O-])/C=C1\C=CC=CN1Cc1ccc(Cl)cc1
 : i, -3%
- COc1ccc(OC)c(C2CC(=O)N3CN(c4ccc(C)c(Cl)c4)CSC3=C2C#N)c1 (stereo unspecified)
 : -20%, 16%
- Cc1cccc(N2CCN(C(=O)c3cc4c(=O)oc5ccccc5c4s3)CC2)c1C
 : -12%, -6%
- O=C(c1cnc2n(c1=O)CCS2)N1CCN(c2ccc(Cl)c(Cl)c2)CC1
 : -11%, ?
- Cc1nn(Cc2ccccc2Cl)c(Cl)c1C(=O)O
 : i, -3%
- Cc1ccccc1NC(=O)OCc1cccnc1Oc1ccc(Cl)cc1
 : 4%, 5%

Next section:
SMILES | VACV mCherry inh | VACV Venus inh
COc1cc(OC)cc(-c2sc3ccc(OC)cc3c2-c2ccc3cc[nH]c3c2)c1 | i | -24%
CCCCCn1c(CN2CCN(Cc3ccccc3)CC2)nc2c1c(=O)[nH]c(=O)n2C | -5% | -13%
O=C(c1ccco1)N1CCCC(c2nc(-c3ccc(S(=O)(=O)NCc4ccccc4)cc3)no2)C1 (stereo unspecified) | -21% | ?
O=C(O)c1ccc(Cl)c(NC(=S)NC(=O)c2ccccc2[N+](=O)[O-])c1 | 10% | -4%
CCOc1ccc(NC(=O)CSc2oc(-c3ccco3)nc2S(=O)(=O)c2ccc(C)cc2)cc1 | -15% | -19%
COc1ccc(CCN2C(=O)C3C(C2=O)C2C=CC3C23CC3)cc1OC (stereo unspecified) | 6% | 2%
COc1cccc(C2C(C(N)=O)=C(C)Nc3nc(CCCO)nn32)c1 (stereo unspecified) | -3% | -1%
CCn1cc(CN(C)S(=O)(=O)c2ccc3ccccc3c2)c(C)n1 | ? | -18%
Cc1ccc(-n2c(=O)[nH]cc(C(=O)Nc3ccc4c(c3)OCO4)c2=O)cc1C | 11% | -11%
CCCC(=O)Nc1ccc(N2CCN(S(C)(=O)=O)CC2)cc1 | i | 0%
COc1ccccc1NCCC(=O)OCC(=O)Nc1ccccc1Cl | ? | -17%
Cc1nc(-c2cccc(NC(=O)Nc3ccc([N+](=O)[O-])cc3)c2)no1 | ? | ?
CC(=O)c1ccc(N2CCN(S(=O)(=O)c3cc(-c4onc(C)c4C)ccc3C)CC2)cc1 | ? | ?
CC[C@H](C)[C@H](NS(=O)(=O)c1ccc(C)cc1)C(=O)N1CCC(C(=O)N[C@@H](C)C(=O)O)CC1 | -16% | -6%
CCCN(CCC)CCCNS(=O)(=O)c1cc(Br)cc2c1N(C(C)=O)CC2 | -12% | -9%
CCN(CC)CCC(C)OC(=O)c1ccc(O)cc1O (stereo unspecified) | 2% | -4%
CCCC(=O)N(C1CC(C)C(C#N)(C#N)C1(C#N)C#N)N(C)C (stereo unspecified) | i | -12%
O=C1COc2ccc(C(=O)COC(=O)c3cccnc3Cl)cc2N1 | -17% | -13%
COc1ccc(OCC(O)CN2CCCCCC2)cc1 (stereo unspecified) | -4% | -5%
COc1ccc(Br)cc1CN1CCN(C(=O)c2cccc(OC)c2OC)CC1 | ? | -3%
C[C@H](CO)N1C[C@H](C)[C@H](CN(C)C(=O)c2ccncc2)OCc2cnnn2CCCC1=O | i | -8%
CCOC(=O)C(=O)N=Nc1c(O)[nH]c2ccccc12 | -13% | -12%
CCN(CC)S(=O)(=O)c1cccc(-c2nc3n(n2)Cc2ccccc2-3)c1 | -9% | -1%
CCOc1c(N2CC(C)OC(C)C2)c(=O)c1=O (stereo unspecified) | i[7.34 µM] | -8%[7.34 µM]
COc1cc(/C=C/C(=O)c2ccc(NS(=O)(=O)c3ccc(C)cc3)cc2)cc(OC)c1O | ? | 222%[activator]
CCOC(=O)C1(C)CCN1C(=O)c1cc(F)ccc1C (stereo unspecified) | -1% | 8%
CCCNC(=O)C1(C)CCN1C(=O)Cc1ccc(-c2ccccc2)cc1 (stereo unspecified) | -12% | -9%
COc1cc(C(=O)N(C)CC2CCN(CCc3cccc(C(F)(F)F)c3)CC2)ccc1C | -18% | -26%
COc1ccc(S(=O)(=O)N2CCN(c3cnccn3)CC2)cc1OC | ? | -10%
Cc1[nH]n(-c2ccc([N+](=O)[O-])cc2)c(=O)c1C=NCCN1CCN(C(=O)C(C)C)CC1 | i | -9%
Cc1cccc(NS(=O)(=O)c2ccc(C)c(C(N)=O)c2)c1 | -9% | 3%
O=C(NCC1CCCN(Cc2ccc3c(c2)OCCO3)C1)c1ccc2c(c1)OCO2 (stereo unspecified) | i | -17%
O=C(NCc1ccccc1Cl)C(=O)NCC(c1ccco1)N1CCOCC1 (stereo unspecified) | -27% | -3%
O=C(c1ccc2nc[nH]c2c1)N1CCN(S(=O)(=O)c2cccc(F)c2)CC1 | -11% | -6%
CCN(CC)C(=O)CSc1nnc(COc2ccc(OC)cc2)n1N | -6% | -3%
Cc1cccc(NC(=O)Cc2ccc(Br)cc2)n1 | 7% | -4%
O=S(=O)(Cc1ccccc1)N1CCn2c(nc3ccccc32)C1 | 17% | 6%
CSc1nc(N2CCN(c3ccccc3Cl)CC2)c2ccccc2n1 | -7% | -3%
CCOC(=O)c1nnn(CC(=O)Nc2cc(Cl)ccc2C)c1C(=O)OCC | -12% | -7%
CC(=O)c1cccc(NC(=O)c2sc(-n3nc(C)c(Cc4ccccc4)c3C)nc2C)c1 | -20% | -21%

Assay outcomes from PubChem.
